Choline anaer gr = blocks anaerobic gram-negative growth on choline | AID 1963822 | calls only | 0.2% of 55,000 active | Gram-negative bacterium anaerobic choline minimal medium, absorbance growth; active compounds read low; many inactives read as strong as hits in the columns shown;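 active = growth z-score on choline under -2 at 7 or 20 h with little or no fall on glycerol, limits in tiers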;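 note: stock transfer was 300 nL into about 50 µL; the organism is E. coli; final concentration not given here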
Choline anaer gr early = also measured in Choline anaer gr; calls as there; z-score; measured here: choline growth z-score, timepoint 1;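 score of optical density at 7 h as mean of two plates; lower means less growth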
* marks the source's active call; other numbers are inactive results; & = joins results of further samples. Some of the compounds tested. The share of hits here may be higher or lower than overall.

`CCOc1ccc(CN2CCCC2c2ccc(Cl)cc2)cc1OC` (configuration not stated) gave Choline anaer gr inactive and Choline anaer gr early 0.62.
`CC(C(O)c1ccc(O)cc1)N1CCC(Cc2ccccc2)CC1` (configuration not stated) gave Choline anaer gr inactive and Choline anaer gr early 0.29&-3.85&-0.34&-0.25&-2.15.
`COc1ccc2cc3c(nc2c1)N(C(C)=O)CC3` gave Choline anaer gr inactive and Choline anaer gr early -0.79.
Screening Cc1ccc(S(=O)(=O)c2ccc(C(=O)Nc3ccc(Br)c(C)c3)cn2)cc1C returned Choline anaer gr inactive and Choline anaer gr early 1.24.
`CCOC(=O)c1c(NC2=NS(=O)(=O)c3ccccc32)sc(C)c1C` gave Choline anaer gr inactive and Choline anaer gr early -0.73.
For CCN(C1CCS(=O)(=O)C1)S(=O)(=O)c1cc(N2C(=O)CCS2(=O)=O)ccc1OC (configuration not stated) the results were Choline anaer gr inactive and Choline anaer gr early -0.51.
Screening CCSc1nnc(-c2nn(C)c3c2CN(S(=O)(=O)Cc2ccccc2Cl)CC3)n1CC returned Choline anaer gr inactive and Choline anaer gr early 0.68.
Cc1ccc(C)c(-n2cc[nH]c(=O)c2=O)c1 was read as Choline anaer gr inactive and Choline anaer gr early -0.12.
Cn1c(=O)sc2cc(NC(=O)C(C)(C)C)ccc21 was read as Choline anaer gr inactive and Choline anaer gr early -1.25.
Screening CCC(=O)Nc1ccccc1-c1nnc(SCC(=O)Nc2c(CC)cccc2CC)[nH]c1=O returned Choline anaer gr inactive and Choline anaer gr early -0.98.
`O=c1c2sccc2nc(SCc2nc(-c3ccc4c(c3)OCO4)no2)n1C1CC1` gave Choline anaer gr inactive and Choline anaer gr early 0.83.
Cc1nc(-c2cc(S(=O)(=O)NCc3ccc(Br)cc3)c(C)s2)cs1 was read as Choline anaer gr inactive and Choline anaer gr early -1.64.
For O=S(=O)(NC1CCCCC1)c1ccc(-c2cnc(C3CCC3)o2)s1 the results were Choline anaer gr inactive and Choline anaer gr early 1.01.
For O=C(C1CCCN(c2ccc3cc(S(=O)(=O)N4CCCC4)ccc3n2)C1)N1CCc2ccccc21 (configuration not stated) the results were Choline anaer gr inactive and Choline anaer gr early 0.56.
Screening CC1CC(C)CN(CC2CCN(C(=O)Nc3ccc(Br)cc3)CC2)C1 (configuration not stated) returned Choline anaer gr inactive and Choline anaer gr early -2.52.
O=c1c2ccc(F)cc2ncn1C1CCN(S(=O)(=O)c2ccc(F)cc2F)CC1 was read as Choline anaer gr inactive and Choline anaer gr early 0.66.
For Cc1nc(-c2ccc(N3CCN(C(=O)c4cc5ccccc5[nH]4)CC3)cc2)no1 the results were Choline anaer gr inactive and Choline anaer gr early 0.15.
`CCOc1ccc(NC(=O)Nc2ccc(Cn3cnc(-c4nc(-c5ccc(Cl)cc5)no4)c3)cc2)cc1` gave Choline anaer gr inactive and Choline anaer gr early 0.58.
`CCOC(=O)c1ccccc1NC(=O)CSc1ncc(CO)n1Cc1ccc(C)cc1` gave Choline anaer gr inactive and Choline anaer gr early -0.11.
`O=C1CCCc2c1cc(C(=O)NCc1ccccc1Cl)c(=O)n2-c1ccc(F)cc1` gave Choline anaer gr inactive and Choline anaer gr early -1.28.
`O=C(NCCc1ccc(Cl)cc1)c1nnc(-c2ccc(S(=O)(=O)N3CCCC3)cc2)o1` gave Choline anaer gr inactive and Choline anaer gr early -0.57.
CCCOc1ccc(C2CC(=O)Nc3c2cnn3-c2ccc3nnc(C)n3n2)cc1OC (configuration not stated) was read as Choline anaer gr inactive and Choline anaer gr early 0.14.
O=S(=O)(Nc1ccc(-c2ccc(N3CCCCC3)nn2)cc1)c1ccc2c(c1)OCCO2 was read as Choline anaer gr inactive and Choline anaer gr early -0.54.
For Cc1c(Cl)cccc1NC(=O)CCc1nc(CSc2nc(-c3ccccc3)cs2)no1 the results were Choline anaer gr inactive and Choline anaer gr early 0.36.
CCN(CC)S(=O)(=O)c1ccc2c(c1)c(=O)c(C(=O)N1CCC(Cc3ccccc3)CC1)cn2C was read as Choline anaer gr inactive and Choline anaer gr early 0.54.
For CC(C)CNC(=O)c1ccc(-c2ccc(N3CCCC3)nn2)cc1 the results were Choline anaer gr inactive and Choline anaer gr early -0.64.
`COc1cccc(NC(=O)Nc2cc(NC(=O)c3cccc(C)c3)ccc2N2CCCC2)c1` gave Choline anaer gr inactive and Choline anaer gr early 1.85.
For CC(=O)N1CCC2(CC1)NC(=O)c1ccccc1O2 the results were Choline anaer gr inactive and Choline anaer gr early -0.12.
Cc1ccc2nc(N3CCN(C(=O)C(C)C)CC3)c(-c3noc(-c4ccccc4)n3)cc2c1 was read as Choline anaer gr inactive and Choline anaer gr early 0.91.
For CC12CN3CC(C)(CN(C1)C3c1cccc(Br)c1)C2=O (configuration not stated) the results were Choline anaer gr inactive and Choline anaer gr early -1.41.

The final two entries of the section above lead into the next.
Cc1ccc2nc(N3CCN(C(=O)C(C)C)CC3)c(-c3noc(-c4ccccc4)n3)cc2c1 was read as Choline anaer gr inactive and Choline anaer gr early 0.91.
For CC12CN3CC(C)(CN(C1)C3c1cccc(Br)c1)C2=O (configuration not stated) the results were Choline anaer gr inactive and Choline anaer gr early -1.41.
`O=C(COc1cccc(-c2nc(-c3ccccc3)no2)c1)Nc1ccccc1F` gave Choline anaer gr inactive and Choline anaer gr early -0.94.
COc1cccc(NC(=O)Nc2ccc3nc(SCC(=O)Nc4ccccc4C)sc3c2)c1 was read as Choline anaer gr inactive and Choline anaer gr early 0.3.
For Cn1c(=O)c2c(C(=O)NCCN3CCCC3)cc(=O)n(C)c2n(C)c1=O the results were Choline anaer gr inactive and Choline anaer gr early -1.48.
Screening O=C(NC1CC1)C1CCN(S(=O)(=O)c2ccc(-c3noc(C4CC4)n3)cc2)CC1 returned Choline anaer gr inactive and Choline anaer gr early -1.02.
`CCC(CC)N1CCN(C(=O)c2nc(N3CCSCC3)c3cn(C)nc3n2)CC1` gave Choline anaer gr inactive and Choline anaer gr early 0.12.
O=C(O)c1ccc(N2CCN(c3ncccn3)CC2)c(NC(=O)c2ccc(F)cc2)c1 was read as Choline anaer gr inactive and Choline anaer gr early -0.01.
CCOC(=O)c1c(S(=O)(=O)N2CCC(C(=O)Nc3ccc4c(c3)OCO4)CC2)c(C)n(C)c1C was read as Choline anaer gr inactive and Choline anaer gr early 1.25.
For COc1ccc(NC(=O)Cn2nc3c(Sc4ccccc4)nc4ccccc4n3c2=O)c(OC)c1 the results were Choline anaer gr inactive and Choline anaer gr early -0.19.
For COc1cccc(CNC(=O)CNC(=O)C2(C)Cn3c(cc4ccccc43)C(=O)N2C)c1 (configuration not stated) the results were Choline anaer gr inactive and Choline anaer gr early -0.4.
Screening Nc1nc(-c2ccc(F)cc2)nn1C(=O)c1ccc(F)cc1 returned Choline anaer gr inactive and Choline anaer gr early 0.86.
Screening O=C(c1cncc(NS(=O)(=O)c2ccc(F)cc2)c1)N1CCOCC1 returned Choline anaer gr inactive and Choline anaer gr early -0.25.
`CNC(=O)N1CCC(n2cnc3ccccc32)CC1` gave Choline anaer gr inactive and Choline anaer gr early -0.83.
Screening Cc1ccc2c(c1)N(C(=O)C1CCOC1)CC(C)O2 (configuration not stated) returned Choline anaer gr inactive and Choline anaer gr early -0.39.
For COc1ccc(OC)c(S(=O)(=O)N2CCc3c([nH]c4ccccc34)C2c2ccccc2)c1 (configuration not stated) the results were Choline anaer gr inactive and Choline anaer gr early -0.21.
Screening O=C(Nc1cc(F)ccc1F)c1ccc(=O)n(Cc2cccc(F)c2)c1 returned Choline anaer gr inactive and Choline anaer gr early -0.77.
For CNC(=O)c1ccc(-c2nc(CN3CCN(C(=O)Nc4ccc(C)c(C)c4)CC3)c(C)o2)cc1 the results were Choline anaer gr inactive and Choline anaer gr early 0.86.
`O=C(CCCN1C(=O)CSc2ncccc21)NC1CC1` gave Choline anaer gr inactive and Choline anaer gr early 1.09.
Screening O=C(O)Cc1ccc(OCCNC[C@H](O)c2ccccc2)cc1 returned Choline anaer gr inactive and Choline anaer gr early 0.69.
`c1ccc(-c2noc(C3COc4ccccc4O3)n2)cc1` (configuration not stated) gave Choline anaer gr inactive and Choline anaer gr early -1.11.
For Cc1cc2c(cc1S(=O)(=O)N1CCCC(C(=O)NC3CCCCC3)C1)OC(C)C(=O)N2 (configuration not stated) the results were Choline anaer gr inactive and Choline anaer gr early -0.03.
COc1ccc(S(=O)(=O)Nc2ccc(-c3ccc(N4CCOCC4)nn3)cc2)c(OC)c1 was read as Choline anaer gr inactive and Choline anaer gr early -1.03.
`CCCCC/C=C\C/C=C\CCCCCCCC(N)=O` gave Choline anaer gr inactive and Choline anaer gr early 0.4.
N[C@H](CSC(c1ccccc1)(c1ccccc1)c1ccccc1)C(=O)O was read as Choline anaer gr inactive and Choline anaer gr early 0.28.
`O=C(c1[nH]nc2c1CCc1ccccc1-2)N1CCc2[nH]nc(-c3ccc(Cl)cc3)c2C1` gave Choline anaer gr inactive and Choline anaer gr early 0.21.
O=S(=O)(c1cc(-c2nnc(-c3ccc(F)cc3)o2)ccc1Cl)N1CCCCC1 was read as Choline anaer gr inactive and Choline anaer gr early -0.26.
O=C(CCC(=O)N1CCc2cc(S(=O)(=O)N3CCc4ccccc43)ccc21)N1CCCCC1 was read as Choline anaer gr inactive and Choline anaer gr early 1.13.
O=C(NCc1ccccc1)N1CCC(N2CCN(Cc3cccc(F)c3)C(=O)C2=O)CC1 was read as Choline anaer gr inactive and Choline anaer gr early -0.67.
`O=C(C1CCC(=O)N1S(=O)(=O)c1ccccc1)N1CCN(c2ccccc2)CC1` (configuration not stated) gave Choline anaer gr inactive and Choline anaer gr early -1.49.
For CN(c1ccc(F)cc1)S(=O)(=O)N1CCCC(C(=O)NCCc2c[nH]c3ccccc23)C1 (configuration not stated) the results were Choline anaer gr inactive and Choline anaer gr early 0.18.
`CCn1nccc1C1CCCN1C(=O)Nc1ccc2c(c1)OCCO2` (configuration not stated) gave Choline anaer gr inactive and Choline anaer gr early -0.37.

Structural class, the entries above with an NH in an aromatic ring
Cc1ccc(C)c(-n2cc[nH]c(=O)c2=O)c1 was read as Choline anaer gr inactive and Choline anaer gr early -0.12.
Screening CCC(=O)Nc1ccccc1-c1nnc(SCC(=O)Nc2c(CC)cccc2CC)[nH]c1=O returned Choline anaer gr inactive and Choline anaer gr early -0.98.
For Cc1nc(-c2ccc(N3CCN(C(=O)c4cc5ccccc5[nH]4)CC3)cc2)no1 the results were Choline anaer gr inactive and Choline anaer gr early 0.15.
For COc1ccc(OC)c(S(=O)(=O)N2CCc3c([nH]c4ccccc34)C2c2ccccc2)c1 (configuration not stated) the results were Choline anaer gr inactive and Choline anaer gr early -0.21.
`O=C(c1[nH]nc2c1CCc1ccccc1-2)N1CCc2[nH]nc(-c3ccc(Cl)cc3)c2C1` gave Choline anaer gr inactive and Choline anaer gr early 0.21.
For CN(c1ccc(F)cc1)S(=O)(=O)N1CCCC(C(=O)NCCc2c[nH]c3ccccc23)C1 (configuration not stated) the results were Choline anaer gr inactive and Choline anaer gr early 0.18.

Going on with the list.
O=C(CN1C(=O)CSc2ccc(C(=O)N3CCCC3)cc21)Nc1ccccc1Cl was read as Choline anaer gr inactive and Choline anaer gr early -0.09.
Cc1ncc(CO)c2cc(C(=O)Nc3ccccc3S(N)(=O)=O)c(=O)oc12 was read as Choline anaer gr inactive and Choline anaer gr early 0.6.
For C=CCn1c(=O)c2ccc(C(=O)NCc3ccc4c(c3)OCO4)cc2n(Cc2ccc(F)cc2Cl)c1=O the results were Choline anaer gr inactive and Choline anaer gr early 1.58.
For COc1cccc(Sc2nc3ccccc3n3c(=O)n(CC(=O)NCC4CCCO4)nc23)c1 (configuration not stated) the results were Choline anaer gr inactive and Choline anaer gr early 0.95.
`COc1ccc(NC(=O)C2CCN(S(=O)(=O)c3ccc4c(c3)CCCC(=O)N4)CC2)cc1OC` gave Choline anaer gr inactive and Choline anaer gr early 1.29.
Screening COc1ccc(NC(=O)CCc2nc3c(C)nn(-c4ccc(C)cc4)c3n(C)c2=O)cc1 returned Choline anaer gr inactive and Choline anaer gr early 0.46.
`Oc1c(C(Nc2ccccc2Cl)c2ccccn2)ccc2cccnc12` (configuration not stated) gave Choline anaer gr inactive and Choline anaer gr early 1.8.
`Cc1cc(C)c2c(n1)SCCN2C(=O)Nc1ccc(C(=O)NCC2CCCO2)cc1` (configuration not stated) gave Choline anaer gr inactive and Choline anaer gr early -0.39.
`O=C(NC1CCCCC1)N1CCc2cc(S(=O)(=O)NC3CCCc4ccccc43)ccc21` (configuration not stated) gave Choline anaer gr inactive and Choline anaer gr early -0.65.
Screening O=C(Nc1ccccc1F)C1CCCN(c2nc3cccnc3s2)C1 (configuration not stated) returned Choline anaer gr inactive and Choline anaer gr early 0.7.
For Cc1nn(C(C)C)c(C)c1S(=O)(=O)N1CCN(C(=O)c2ccnn2C)CC1 the results were Choline anaer gr inactive and Choline anaer gr early -0.4.
Screening O=C(Cn1c(=O)ccc2cc(S(=O)(=O)N3CCCC3)ccc21)N1CCN(c2ccccc2F)CC1 returned Choline anaer gr inactive and Choline anaer gr early 1.11.
For CCC(=O)Nc1nc2cc(NC(=O)c3cc4ccccc4[nH]3)ccc2s1 the results were Choline anaer gr inactive and Choline anaer gr early 0.1.
`CCOC(=O)c1ccc2c(c1)NC(=O)CO2` gave Choline anaer gr inactive and Choline anaer gr early -1.84.
For CCc1ccc(C(=O)c2cn(CC(=O)Nc3ccc(C(C)C)cc3)c3ccccc3c2=O)cc1 the results were Choline anaer gr inactive and Choline anaer gr early -1.44.

Compounds shown so far containing a thiophene ring, fused or not, in the order listed:
`CCOC(=O)c1c(NC2=NS(=O)(=O)c3ccccc32)sc(C)c1C` gave Choline anaer gr inactive and Choline anaer gr early -0.73.
`O=c1c2sccc2nc(SCc2nc(-c3ccc4c(c3)OCO4)no2)n1C1CC1` gave Choline anaer gr inactive and Choline anaer gr early 0.83.
Cc1nc(-c2cc(S(=O)(=O)NCc3ccc(Br)cc3)c(C)s2)cs1 was read as Choline anaer gr inactive and Choline anaer gr early -1.64.
For O=S(=O)(NC1CCCCC1)c1ccc(-c2cnc(C3CCC3)o2)s1 the results were Choline anaer gr inactive and Choline anaer gr early 1.01.
